Assay outcomes: PubChem BioAssay, several laboratories
Mtb betalactam: beta-lactam sensitization of Mtb H37Rv; M. tuberculosis H37Rv growth with meropenem, percent inhibition; hits of this screen are not shown here; inhibition, % at 25 µM; hit rate 0.27% among 330,000; AID 434955;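 active = about 74% or more and at least 40 points above the plate without the antibiotic, then above 30% in a dose series; inconclusive = first-round hits that could not be retested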;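 note: growth measured after seven days incubation then overnight dye step; 0% = bacteria only wells and 100% = bacteria with antibiotic; twin plates without the antibiotic show which effects depend on it; some results filed as inactive read as strong as hits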
Mtb growth: M. tuberculosis H37Rv growth inhibitors, H37Rv strain (AID 1626). M. tuberculosis H37Rv growth inhibition; higher % means a stronger effect. one-dose inhibition, % at 10 µM; IC50 in µM for titrated hits. hit rate 0.95% among 220,000;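 active = confirmed in a dose series; inconclusive = inhibition above 80% but not taken into the dose series; inactive = below 80% or under 30% at every dose of the series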;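 note: bacteria incubated seven days before Alamar blue readout; 0% = bacteria only wells and 100% = bacteria with antibiotic wells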
RecA splice inh: inhibitors of M. tuberculosis RecA intein splicing. P9WHJ3. cell-free RecA intein splicing, fluorescence. inhibition, %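 (about 9 µM by stock and volumes)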. hit rate 0.75% among 290,000. AID 2221; in the data active = inhibition above about 30%; inconclusive = no clear call, values can overlap the other calls;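 note: 0% = vehicle wells and 100% = reference inhibitor control wells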
Target sequence (P9WHJ3 whole entry, looked up, canonical isoform): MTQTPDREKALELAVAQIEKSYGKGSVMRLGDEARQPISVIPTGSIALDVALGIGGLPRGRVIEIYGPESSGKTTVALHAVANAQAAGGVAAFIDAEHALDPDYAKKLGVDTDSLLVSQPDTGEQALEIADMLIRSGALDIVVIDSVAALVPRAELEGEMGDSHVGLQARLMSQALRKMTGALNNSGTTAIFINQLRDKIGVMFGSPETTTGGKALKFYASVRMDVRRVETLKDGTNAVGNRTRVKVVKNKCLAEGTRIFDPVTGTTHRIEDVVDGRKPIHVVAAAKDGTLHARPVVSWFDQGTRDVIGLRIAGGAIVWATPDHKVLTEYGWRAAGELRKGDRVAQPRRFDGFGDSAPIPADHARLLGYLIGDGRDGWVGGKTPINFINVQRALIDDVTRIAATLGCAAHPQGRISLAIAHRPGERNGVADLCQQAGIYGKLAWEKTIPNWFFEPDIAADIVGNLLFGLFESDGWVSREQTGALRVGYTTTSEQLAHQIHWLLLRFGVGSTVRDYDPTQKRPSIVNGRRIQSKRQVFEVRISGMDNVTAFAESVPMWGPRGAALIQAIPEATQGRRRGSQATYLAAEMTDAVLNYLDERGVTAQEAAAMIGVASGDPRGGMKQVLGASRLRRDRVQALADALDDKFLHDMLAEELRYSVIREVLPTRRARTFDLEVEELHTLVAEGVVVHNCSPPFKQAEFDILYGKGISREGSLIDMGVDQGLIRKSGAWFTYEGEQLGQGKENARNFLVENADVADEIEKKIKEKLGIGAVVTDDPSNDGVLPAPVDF
YopH PTP inh: inhibitors of Yersinia enterocolitica YopH tyrosine phosphatase. AID 898. hit rate 0.16% among 140,000. fluorescence Ex485/Em525. inhibition, %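 (about 10 µM by stock and volumes)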;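 active = inhibition of 50% or more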;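 note: controls were vehicle for no effect and minimum signal wells for full effect; inactives centre near -20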
Arbovirus anti: blocks arbovirus infection; arbovirus infection cell-based antiviral screen; inhibition, % at 10 µM; hit rate 0.37% among 200,000; AID 1251;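 active = inhibition from about 30%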;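 note: bluetongue infection of BSR cells; cell survival read as ATP light after 72 h; 0% = infected wells without compound and 100% = uninfected wells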
Arbovirus anti repeat: recorded beside Arbovirus anti, whose call it bears; inhibition, %; measured here: 10K subset replicate screen; many hits read low in the repeat;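 first of two repeat runs on a subset; 0% = infected and 100% = uninfected wells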
* = called active by the depositor; ? = inconclusive; · = not tested or not shown. These rows are one share of the data (hit frequency here may not be typical).

SMILES | Mtb betalactam | Mtb growth | RecA splice inh | YopH PTP inh | Arbovirus anti | others
O=C(CSc1nnc(-c2ccccc2)o1)N1CCCCC1 | 90.1 | · | 0.3 | · | ·
CCOC(=O)C1CCN(C(=O)Cn2nc(C)n3nc(-c4ccc(OC)cc4)cc3c2=O)CC1 | 3.1 | · | -7.4 | · | ·
O=C(NNS(=O)(=O)c1ccc(Cl)cc1)c1cccs1 | 10.7 | -4.2% | 2.0 | · | 1.9
CC(=O)NCCc1nc2cc(NC(=O)c3ccccc3)ccc2n1C | -0.9 | 3.5% | -0.3 | · | 9.7
O=C(COc1ccccc1[N+](=O)[O-])Nc1cccnc1 | 3.9 | -1.9% | 2.2 | · | 0.4
S=C(NCCc1ccccc1)N1CCCCC1 | 0.0 | 0.5% | -1.6 | · | -6.0
COC(=O)c1ccc(-c2nc(CN3CCCN(C(=O)c4ccco4)CC3)c(C)o2)cc1 | -2.6 | · | 4.3 | · | ·
CCOC(=O)N1CCN(S(=O)(=O)c2ccc(C(=O)Nc3nnc(C4CC4)o3)cc2)CC1 | -8.2 | -6.6% | 1.0 | -11.3 | -0.2
Cc1nnc(Sc2cc(C(=O)NC3CC3)c3ccccc3n2)s1 | -2.5 | -10.7% | · | · | ·
CCOc1ccc(NC(=O)CCN2CCCCC2)cc1 | -6.8 | -3.4% | 4.9 | -29.3 | 0.4
COc1ccc(-n2c(C)cc(/C=C3/SC(=O)N(CC(=O)N4CCOCC4)C3=O)c2C)cc1 | -4.1 | 5.5% | 0.6 | -11.3 | 2.6
CC(C)(C)C(=O)NCCc1nc(-c2ccccc2)no1 | 7.7 | 9.8% | -0.4 | · | ·
COc1ccc(C2/C=C\CN(CC(C)C)CC(=O)N2Cc2ccc(F)cc2)cc1 (configuration not stated) | -10.1 | -3.2% | 24.1 | · | ·
CC(=O)N1CC(=O)N(c2ccccc2)C1=O | -1.0 | · | -0.2 | · | ·
O=C(Nc1cccc2ccccc12)c1cnccn1 | -1.8 | -4.4% | 2.3 | -28.3 | -7.7
Cc1n[nH]c(=S)n1/N=C/c1cccc(OCc2ccccc2)c1 | -1.1 | 11.0% | · | · | -1.5
CC12CN3CCN(CC(C3)C1(O)CN1CCCCC1)C2 (configuration not stated) | -6.6 | -1.7% | 1.2 | 15.3 | -3.8 | Arbovirus anti repeat=2.8
CC(=O)Nc1ccc(-c2csc(Nc3cc(C)ccn3)n2)cc1 | -2.8 | 7.4% | 2.9 | · | -4.0
CCOC(=O)C1(C)/C(=N/Nc2ccccc2)C(=O)C(=O)N1c1ccccc1 (configuration not stated) | 3.1 | -0.4% | 5.9 | -1.6 | -8.0
O=C(CCC1CCCC1)NNC(=O)c1cccc(Cl)c1 | 0.9 | · | 0.8 | · | ·
COc1cccc2c1OCC/C2=N\NC(=O)C(C)Oc1ccc([N+](=O)[O-])cc1 (configuration not stated) | -0.6 | -10.2% | -0.2 | · | 5.2
Cc1cc(NC(=O)CSc2nnc(C3COc4ccccc4O3)n2N)no1 (configuration not stated) | -8.1 | · | 4.0 | · | ·
COc1ccccc1CN1[C@@H](CC(=O)O)c2ccccc2S1(=O)=O | -0.3 | -7.8% | 1.4 | · | ·
CCOCCCNC(=O)C1CC(=O)N(CCc2ccc(C)cc2)C1 (configuration not stated) | 1.6 | · | -3.8 | · | ·
C/C(=N\NC(=O)c1nnn(-c2nonc2N)c1-c1ccc(Cl)c(Cl)c1)c1ccncc1 | 8.9 | · | -3.5 | · | ·
O=C(NNC(=S)NC(=O)c1cccnc1)c1ccccc1 | 93.5 | -10.7% | -1.4 | -28.9 | -13.9
Cn1cc(C(=O)N/N=C/c2ccc(Br)c([N+](=O)[O-])c2)c2ccccc21 | 59.3 | -0.1% | 0.3 | · | ·
Cc1ccc(S(=O)(=O)N2CCCCC2CCNC(=O)C(=O)NCc2ccccc2C)cc1 (configuration not stated) | -7.7 | · | 1.0 | · | ·
CC(C)Nc1cc(C(F)(F)F)nc(-c2ccccn2)n1 | 87.0 | 5.17µM* | -3.8 | 2.7 | 5.6
Cc1ccc(COC(=O)c2cc([N+](=O)[O-])ccc2N2CCOCC2)cc1 | 1.2 | · | 5.2 | · | ·
CCOC(=O)c1cn2ccc(C)cc2n1 | 0.6 | -5.4% | 0.1 | · | 1.0
C=C(C)C1CCC(C)=C1COC(=O)Nc1ccccc1 (configuration not stated) | 95.6 | -2.5% | 8.8 | -11.3 | -16.9
O=[N+]([O-])c1ccccc1OCc1nc(-c2cccs2)no1 | 4.2 | -1.7% | -3.7 | · | 21.9
COc1ccc(-n2ncc3c(NCc4cccnc4)ncnc32)cc1 | -5.4 | · | 0.2 | · | ·
CC(=O)N1CN(Cc2ccccn2)Cc2c1sc1c2CCCC1 | 23.9 | -3.1% | -14.1 | -34.5 | 5.5
CCc1ccc(OCC(=O)c2c(O)c3ccccc3oc2=O)cc1 | -3.0 | 0.6% | -1.2 | · | 11.1
Cc1ccc(NC(=O)CCC(=O)c2cccs2)cc1F | -3.1 | · | 0.3 | · | ·
CNC(=S)N1CCN(C(=O)c2ccco2)CC1 | 1.8 | 7.6% | 1.0 | -9.3 | 11.1
COc1ccc(CNC(=O)CN(C(=O)c2csnn2)c2cnc3ccccc3c2)cc1 | -0.6 | · | -3.8 | · | ·
CN=C1c2c(-c3ccccc3)c3cc(OC)ccc3n2CCN1C | 0.6 | -3.4% | -23.2 | -6.8 | -25.1
CS(=O)(=O)c1ccccc1-c1nnc(NC(=O)c2ccco2)o1 | -8.0 | · | -0.8 | · | ·
COc1cccc(NC(=O)CSc2nc(=O)n(CCN(C)C)c3c2CCCC3)c1 | -2.1 | · | 0.9 | · | ·
Cc1ccc(S(=O)(=O)N(CCC#N)C2CCCCC2)c2nsnc12 | -1.3 | -6.0% | -2.1 | -5.0 | -0.2
CN(C)S(=O)(=O)c1ccc2nc(NC(=O)c3cccs3)sc2c1 | 10.4 | 0.4% | -3.4 | -28.1 | -10.7
CSc1ccc(OC2CCCCC2NS(=O)(=O)c2ccccc2)cc1 (configuration not stated) | -10.0 | -19.2% | 5.9 | -8.9 | 8.3
COc1ccc2nc(NC(=O)c3cccc(S(=O)(=O)N4CCOCC4)c3)sc2c1 | -4.3 | 5.3% | 1.2 | -35.8 | 2.3
COc1cccc(NC(=O)c2ccc(Cn3cc([N+](=O)[O-])cn3)o2)c1 | 99.6 | ? | -0.3 | -10.2 | 1.6
O=[N+]([O-])c1ccc(N2CCN(c3ccc(F)cc3)CC2)nc1 | 2.0 | · | 3.4 | · | ·
O=C(NCc1ccco1)C(=O)NCC1OCCCN1S(=O)(=O)c1ccccc1 (configuration not stated) | 1.5 | -8.7% | -0.7 | -33.5 | -0.2
CCc1ccc(CN(C)C(=O)C2CCC(=O)N(Cc3ccccn3)C2)cc1 (configuration not stated) | 2.1 | · | -0.7 | · | ·

Next part.
SMILES | Mtb betalactam | Mtb growth | RecA splice inh | YopH PTP inh | Arbovirus anti | others
C/C(Cl)=C\Cn1c(O)c(N=O)c2ccccc21 | -1.2 | 4.0% | 2.4 | · | 13.9
CCOC(=O)Nc1ccc2c(COC(=O)c3ccccc3O)cc(=O)oc2c1 | 14.7 | · | -0.3 | · | ·
Fc1ccc(-c2nc3ccccn3c2NCc2ccc3c(c2)OCO3)cc1 | 2.7 | 5.4% | -2.8 | · | -4.7
Cc1nnc(NC(=O)c2ccc(Br)o2)s1 | 2.2 | · | -2.4 | · | ·
O=C1/C(=C/c2ccco2)SC(=S)N1C1CCS(=O)(=O)C1 (configuration not stated) | 5.7 | 6.8% | -5.5 | · | 14.2
CN1C(=O)C(=O)/C(=C(/O)c2ccc(Br)cc2)C1c1ccc(Cl)cc1 (configuration not stated) | -11.9 | · | 4.1 | · | ·
CCn1c(CNC(=O)Cc2ccc(OC)cc2)n[nH]c1=S | 1.0 | · | 1.9 | · | -2.4
Cc1c(O)nc2sc3ccccc3n2c1=O | -5.3 | 13.9% | -2.7 | · | ·
CCN(CC(=O)Nc1c(F)cccc1F)C(=O)C1CC(=O)N(c2ccc3c(c2)OCCO3)C1 (configuration not stated) | -5.8 | · | -3.3 | · | ·
CC(=O)Nc1ccc(S(=O)(=O)Nc2ccc(=O)n(Cc3ccc(Cl)c(Cl)c3)c2)cc1 | 1.9 | -4.5% | 3.4 | · | 4.7
Cc1ccc(F)cc1NC(=O)C1CCCN(c2ncccn2)C1 (configuration not stated) | 4.9 | 1.7% | -1.4 | 4.5 | -1.9
CCCCC(=O)N(c1ccc(OCC)cc1)C1C=CS(=O)(=O)C1 (configuration not stated) | -3.2 | -1.9% | -0.2 | -18.2 | -1.4
CC(C)(C)C1c2[nH]c3ccccc3c2CCN1Cc1cccc(OCCO)c1 (configuration not stated) | -5.3 | -3.2% | 3.1 | · | -14.5
C=CCN1c2ccccc2[C@]23C[C@@H](C(=O)OC)N(C(=O)c4cccs4)C2=NC(C(=O)OC)=C(C(=O)OC)[C@H]13 | -1.4 | 6.4% | 5.2 | · | ·
CCOP(=O)(O)c1cccc(OCCOCCOc2cccc(P(=O)(O)OCC)c2)c1 | 6.0 | 1.0% | 5.6 | · | -1.3
COc1ccc(NC(=O)c2cc3c(CO)cnc(C)c3oc2=Nc2cc(OC)cc(OC)c2)cc1 | 4.2 | · | -1.9 | · | ·
CCCCC(O)(CCCC)C(=O)NN(C(=O)OCC)c1ccccc1 | 3.8 | -6.9% | 0.1 | -30.0 | 6.4
CCNc1ccc(C(=O)OCC)cc1NC(=O)c1cccc(N(C)C)c1 | 8.4 | 9.9% | -22.4 | -29.7 | -6.9 | Arbovirus anti repeat=-15.8
NC(=O)c1nsc(C(=O)N(c2ccc3c(c2)OCO3)C(C(=O)NCC2CCCO2)c2ccc(F)cc2)c1N (configuration not stated) | 0.8 | · | -3.0 | · | ·
Cc1cc(C(=O)N/N=C/c2c(C)nn(-c3ccccc3)c2C)c(C)o1 | -2.0 | 9.3% | 3.5 | · | ·

Part of the list above in order of length of the SMILES, low to high.
SMILES | Mtb betalactam | Mtb growth | RecA splice inh | YopH PTP inh | Arbovirus anti | others
O=C(CCC1CCCC1)NNC(=O)c1cccc(Cl)c1 | 0.9 | · | 0.8 | · | ·
Cc1ccc(F)cc1NC(=O)C1CCCN(c2ncccn2)C1 (configuration not stated) | 4.9 | 1.7% | -1.4 | 4.5 | -1.9
Cc1nnc(Sc2cc(C(=O)NC3CC3)c3ccccc3n2)s1 | -2.5 | -10.7% | · | · | ·
CCNc1ccc(C(=O)OCC)cc1NC(=O)c1cccc(N(C)C)c1 | 8.4 | 9.9% | -22.4 | -29.7 | -6.9 | Arbovirus anti repeat=-15.8
COc1ccc(C2/C=C\CN(CC(C)C)CC(=O)N2Cc2ccc(F)cc2)cc1 (configuration not stated) | -10.1 | -3.2% | 24.1 | · | ·

Further records follow.
SMILES | Mtb betalactam | Mtb growth | RecA splice inh | YopH PTP inh | Arbovirus anti | others
COc1cc2ccccc2cc1C(=O)N(CCN(C)C)c1nc2c(F)cccc2s1 | -2.0 | · | 4.6 | · | ·
O=C(/C(=C/c1cccnc1)n1ccnc1)c1ccc(Cl)cc1Cl | 1.0 | -1.1% | 9.7 | · | ·
CC(C)Cc1nc2ccccc2n1CCc1ccccc1 | -1.0 | -3.0% | 5.4 | -34.7 | -2.3
CC1=C(C#N)c2nc(N)c(C#N)c(C)c2/C1=C\c1ccc(-c2ccccc2C(=O)O)o1 | · | 1.5% | -3.7 | · | -6.3
C=CC[N+]1(C)C2CCC1CC(O)C2 (configuration not stated) | -4.3 | 4.1% | 1.2 | · | 3.9
Cc1cc(C(=O)OCC(N)=O)c(C)n1-c1ccccc1 | 12.0 | -1.0% | 3.3 | · | -1.8
OC(COc1ccc(F)cc1)CN1CCN(CC(O)COc2ccc(F)cc2)CC1 (configuration not stated) | 0.1 | · | 0.5 | · | ·
O=C(NC(=S)Nc1cccc(C(F)(F)F)c1)c1csnn1 | -10.9 | 3.3% | 1.9 | · | -4.1
COc1cc(/C=N/OCC(=O)NC2CCCCC2)ccc1OCc1ccccc1 | 3.4 | 10.8% | 2.1 | -21.8 | -9.9
CN(C)CCNC(=O)/C(=C/c1ccc(-c2ccc(Cl)cc2)o1)NC(=O)c1ccccc1 | -5.2 | 10.2% | -0.7 | 11.8 | -44.8
Cc1c(C(=O)N2CCN(C(=O)c3ccco3)CC2)sc2nc(-c3ccc(F)cc3)cn12 | -2.2 | 9.9% | 0.7 | -1.2 | 7.3 | Arbovirus anti repeat=-4.1
CCN(CC)c1ccc(CNc2nc3ccccc3n2C)cc1 | -0.3 | · | -8.3 | · | ·
COC(=O)c1ccc(Nc2nc(N3CCOCC3)nc(N3CCOCC3)n2)cc1 | 2.0 | · | -1.1 | · | ·
CC1=C(C(=O)OCc2ccccc2)C(c2cccs2)N2C(=O)CCSC2=N1 (configuration not stated) | -6.6 | 1.2% | -1.0 | · | -0.5
